High-throughput results as filed in PubChem.
MenB inh: M. tuberculosis MenB inhibitors, primary screen, biochemical, absorbance | inhibition, %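 (about 12 µg/mL by stock and volumes)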 | MenB enzyme assay, absorbance read-out; some hits fall short of the stated cut | 1,4-dihydroxy-2-naphthoyl-CoA synthase (Mycobacterium tuberculosis (strain ATCC 25618 / … | 100,000 compounds, 0.43% hits;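 active means mean of two replicates above 30%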;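 further: 0% = no compound and 100% = wells with inactive enzyme; the first replicate is given; strong numbers were not always called active; inactives centre near -10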
MbtI inh: MbtI salicylate synthase inhibitors, primary screen, biochemical, fluorescence intensity; inhibition, %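 (about 17 µg/mL by stock and volumes)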; purified MbtI enzyme, fluorescence intensity read-out; P9WFX0; 100,000 compounds, 0.89% hits;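 active means above 50% in both replicates, above 80% if mildly self-fluorescent; inactive means the rest, strongly fluorescent compounds included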;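 further: 0% = mean of negative and 100% = mean of positive controls; one replicate is shown; some compounds called inactive have numbers as strong as hits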
Target sequence (P9WFX0 whole entry, looked up): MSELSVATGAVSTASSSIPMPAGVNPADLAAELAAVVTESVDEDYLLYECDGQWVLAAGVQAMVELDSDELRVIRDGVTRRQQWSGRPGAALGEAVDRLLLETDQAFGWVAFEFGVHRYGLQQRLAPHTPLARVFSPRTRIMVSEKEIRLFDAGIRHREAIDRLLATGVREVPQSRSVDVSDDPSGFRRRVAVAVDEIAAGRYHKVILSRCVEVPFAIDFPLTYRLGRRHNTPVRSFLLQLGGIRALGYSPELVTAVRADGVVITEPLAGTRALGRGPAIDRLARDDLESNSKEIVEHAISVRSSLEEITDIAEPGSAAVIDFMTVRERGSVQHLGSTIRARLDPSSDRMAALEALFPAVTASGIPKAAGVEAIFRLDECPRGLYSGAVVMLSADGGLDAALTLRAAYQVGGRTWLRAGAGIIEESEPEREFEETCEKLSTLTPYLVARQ
PV pol inh: poliovirus RdRp elongation inhibitors, primary screen, biochemical, fluorescence polarization, total intensity; 150,000 compounds, 0.66% hits; AID 588519, 2011; poliovirus polymerase elongation; stronger effect = lower value; % elongation, % (compound at 16.7 µg/mL); Genome polyprotein (Poliovirus type 1 (strain Mahoney)), P03300; in the data active means % elongation below about 90%; further: some results filed as inactive read as strong as hits
Target sequence (P03300 1749-2209 limits assumed): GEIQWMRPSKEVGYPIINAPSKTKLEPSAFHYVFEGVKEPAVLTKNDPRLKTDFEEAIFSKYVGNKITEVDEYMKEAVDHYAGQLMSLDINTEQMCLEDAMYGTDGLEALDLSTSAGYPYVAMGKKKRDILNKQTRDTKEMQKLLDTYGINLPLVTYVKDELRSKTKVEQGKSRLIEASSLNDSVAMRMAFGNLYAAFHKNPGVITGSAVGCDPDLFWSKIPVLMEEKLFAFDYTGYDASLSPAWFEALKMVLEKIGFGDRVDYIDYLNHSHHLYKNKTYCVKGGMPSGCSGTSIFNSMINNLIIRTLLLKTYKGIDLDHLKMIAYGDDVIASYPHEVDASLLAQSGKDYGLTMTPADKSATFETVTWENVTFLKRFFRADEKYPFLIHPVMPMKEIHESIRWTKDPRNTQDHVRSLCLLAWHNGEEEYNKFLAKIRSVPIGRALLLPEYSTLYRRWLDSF
PV pol inh intensity: second read-out of PV pol inh, no call of its own (marks repeat the call); % elongation; measured here: total intensity read-out; formula for this scale not given here;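 total fluorescence in place of polarization; lower means less elongation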
Numbers without * were called inactive; i = inactive; . = not tested or not shown; & = joins results of further samples.

SMILES	MenB inh	MbtI inh	PV pol inh	PV pol inh intensity
Cc1ccc(-c2cc(C(=O)N/N=C/C=C/c3ccccc3)n[nH]2)o1	-23	-2	102	103
Cc1ccccc1-n1c(N)cc(=O)n(Cc2cccs2)c1=O	0	4	103	106
CN(CC(=O)N1CCCCC1)c1nnc(N2CCCC2=O)s1	-12	2	104	103
CC(C)C(CC(=O)O)NCc1ccccc1Cl (configuration not stated)	1	1	102	103
CCOC(=O)C1CCCN(C(=O)CCc2nc3ccccc3s2)C1 (configuration not stated)	1	3	106	110
CC(=O)NC(C)(C)COc1ccc(Cl)cc1	-3	.	102	108
C=CCn1c(C#N)c(N)sc1=N	-40	8	103	106
CCCCc1cc(=O)oc2cc(OC(C)=O)cc(OC(C)=O)c12	0	i	99	103
CCC(=O)Nc1sc2c(c1C#N)CC(C)(C)NC2(C)C	-34	4	102	105
N#Cc1ccc(COC(=O)COc2ccccc2)cc1	.	-8	100	100
Cc1nccn1CC(=O)N/N=C/c1ccc(O)c(O)c1	6	12	103	103
Cn1c([N+](=O)[O-])cnc1COC(N)=O	-6&6	9&-14	101&103	101&101
COc1cc(Cl)c(C)cc1NC(=O)NCc1noc2ccc(C)cc12	-5	-8	106	109
N#Cc1c(N2CCCC2)nc(-c2ccccc2)c2c1CCCC2	-3	8	103	99
COC(=O)C(C)N1C(=O)S/C(=C/c2cccn2C)C1=O (configuration not stated)	-283	-1	101	104
COc1ccc(-n2c(SC3CCOC3=O)nc3ccccc32)cc1 (configuration not stated)	-1	5	102	106
c1ccc(CCCn2cnc3ccccc32)cc1	-13	0	103	104
O=c1[nH]ncc(NCC2CCCO2)c1Cl (configuration not stated)	-15	.	104	102
Cc1cc(NCC(=O)Nc2ccc(N3CCOCC3)cc2)ccc1Br	-11	3	100	105
O=C(/C=C/c1cccs1)N(CC1CCCO1)C1CCS(=O)(=O)C1 (configuration not stated)	-5	12	104	109
COc1ccc(Cl)cc1NC(=O)CN1C(=O)CC(c2ccccc2)S(=O)(=O)c2ccccc21 (configuration not stated)	-10	11	100	104
CSCC(CSC)OC(=O)Nc1ccc(Cl)cc1	6	-4	99	97
N#CCCn1c(-c2cncs2)nc2ccccc21	2	.	103	104
O=C(CC1SC(=NCc2ccccc2)NC1=O)NC1CC1 (configuration not stated)	5	4	102	103
COCc1[nH]c(=S)[nH]c(=O)c1Cc1c(F)cccc1Cl	-28	26	105	97
SCCNc1n[nH]c(Nc2ccccc2)n1	-34	16	99	100
C1=C2CCc3c([nH]c4ccccc34)C2N(c2ccccc2)N1 (configuration not stated)	-22	96	102	107
CCOc1ccccc1NC(=S)N(Cc1c[nH]c2ccccc12)C(C)C	-47	10	106	105
Cc1ccc2[nH]c3nc(NN)nnc3c2c1	-34	-3	102	103
Cc1cc2c(n1-c1ccc(C(=O)NC(C)c3ccccc3)cc1)CCCC2 (configuration not stated)	-2	-2	103	109
COC(CNC(=O)c1cccc2c1C(=O)N(Cc1cccnc1)C2)OC	-12	-2	103	107
COC(=O)C1=NNC(C(=O)OC(C)(C)C)C1c1ccccc1 (configuration not stated)	-2	.	98	102
O=C(CCN1C(=O)C2C3C=CC(C3)C2C1=O)NC1CCCc2ccccc21 (configuration not stated)	15	12	103	100
Oc1ccccc1-c1nnc(SCc2ccccc2)n1-c1ccccc1	-28	-63	102	106
COc1ccc(CN2CCCC(C(N)=O)C2)cc1 (configuration not stated)	-19	-7	101	103
c1csc(-c2ccn3cnnc3n2)c1	-14	105	99	96
CC(C)NC(=O)CCc1nnc2ccc(N3CCCC3)nn12	4	-9	103	103
CCc1ccc(NC(=O)c2cc3cc4ccc(C)cc4nc3o2)cc1	-16	2	102	108
O=C(CN1CCCc2ccccc21)NC(=O)NC1CCCCC1	-12	-27	105	111
O=C(C1CC1)N1CCN(CN2C(=O)NC(Cc3ccccc3)(Cc3ccccc3)C2=O)CC1	-32	-9	99	102
O=C(c1ccc(COc2c(F)c(F)cc(F)c2F)o1)N1CCN(c2ccc(Cl)cc2)CC1	17	6	102	105
NN1CC(=O)N(c2ccc(Cl)cc2)CC1=O	-12	3	105	106
COc1ccc(C(=O)NC(=S)Nc2ccc(NC(=O)c3ccco3)cc2)cc1Cl	-8	-20	98	103
COC(=O)N/N=C/c1ccc(C(C)C)cc1	11	15	103	104
O=C(CCCCn1c(=O)[nH]c2ccsc2c1=O)NCc1cccnc1	-25	2	101	99
CCS(=O)(=O)c1nnnn1-c1ccccc1S(C)(=O)=O	1	.	98	90
CCOC(=O)c1cc2sccc2n1CC(=O)NC1CCC(C)CC1 (configuration not stated)	20	10	101	101
COc1cccc(NC(=O)Cn2c(=O)n(C(C)C)c(=O)c3oc4ccccc4c32)c1	-4	-21	104	104
Cc1cc(=O)c2nncn2[nH]1	-7	25	96	100
CSc1n[nH]c(-c2cccc(Cl)c2)c1C#N	-20	-13	108	108
O=C(Cn1c(=O)sc2ccccc21)NCc1ccccn1	-30	-13	96	97
CCC1CCCCN1C(=O)COC(=O)c1cccs1 (configuration not stated)	-11	-3	103	107
Cc1ccccc1-n1c(O)c(C=NCC2CCCO2)c(=O)[nH]c1=S (configuration not stated)	-38	14	100	101
CC1(NC(=O)Cc2n[nH]c(=O)c3ccccc23)CCS(=O)(=O)C1 (configuration not stated)	-2	3	97	98
CNC(=O)COC(=O)CN1C(=O)c2ccccc2C1=O	0	-32	105	109
COC(=O)c1ccc(COC(=O)c2cc3c(s2)CCC(C)C3)o1 (configuration not stated)	0	10	111	105
Cc1cccc(C(CC(=O)NCc2cccs2)n2cccc2)c1 (configuration not stated)	-5	-7	103	103
N#CC1=C(SCC(=O)Nc2ccc(F)cc2)NC(=O)C(C#N)C12CCCCC2 (configuration not stated)	-18	-10	102	100
CC(C)CCn1nnnc1CN1CCN(C(=O)c2ccco2)CC1	-6	-18	103	103
O=C(CSc1nnc2sc3ccccc3n12)N1CCCC1c1ccc2c(c1)OCCO2 (configuration not stated)	-20	0	102	105
Other entries follow.
SMILES	MenB inh	MbtI inh	PV pol inh	PV pol inh intensity
O=S(=O)(Cc1nc(COc2c(Cl)cccc2Cl)no1)c1ccc(Cl)cc1	-5	24	101	97
COC(=O)c1c(C)[nH]c(C)c1/C=N/OC(=O)c1cccs1	-12	18	101	102
O=C(CSc1ccccc1)Nc1ccc2c(c1)OCO2	-3	7	100	103
S=c1[nH]nc(Cc2ccccc2)n1C1CCCCC1	-19	27	102	103
CC(C)CNC(=O)c1cc2n(n1)C(C(F)(F)F)CC(c1ccco1)N2 (configuration not stated)	1	-7	101	102
Nc1ncc(Br)cc1S(=O)(=O)NCCc1ccccc1	1	0	102	108
CC(=C\c1ccccc1)/C=C1/SC(=O)N(C(C)C)C1=O	-20	-8	98	102
CC(=O)N1CCc2ccccc2C1	5	.	103	92
CC(=O)Nc1ccc2c(c1)ncn2C1CCCCC1	-20	-1	98	103
CCNC(=S)NCCc1ccc(Cl)cc1	-12	-12	106	108
COc1ccc(NC(=O)C2CCN(C(=O)c3cccc(OC)c3)CC2)cc1	-5	6	102	101
COc1ccc(CN(C)c2nn(C)c(=O)n(C)c2=O)cc1OC	4	3	100	102
Cc1oc(-c2ccccc2)nc1Cn1cccc1C1=NC(c2ccccc2)CO1 (configuration not stated)	-46	11	104	107
CCCCNC(=O)Cc1csc(-c2ccccc2)n1	-32	-9	105	98
COc1ccc(N2CCN(S(=O)(=O)/C=C/c3ccccc3)CC2)cc1	-6	-4	102	100
COc1ccc2[nH]c3c(c2c1)CCN=C3C	-6	-23	100	99
O=C(COC(=O)/C=C/c1ccccc1)NC1CCS(=O)(=O)C1 (configuration not stated)	0	11	101	103
CNC(=O)c1cccc2c1-c1ccccc1C2=O	-10	-11	102	106
COc1ccc(N2CCN(CCCn3c(NN)nc4ccsc4c3=O)CC2)cc1	12	2	103	97
O=C(CCc1n[nH]c(=S)[nH]c1=O)NCCc1ccc(Cl)cc1Cl	6	7	97	107
COC(=O)c1cc2sccc2n1CC(=O)c1ccccc1	-2	-2	102	96
O=C(c1cc2ccccc2o1)N1CCCC1	-71	-2	107	100
CC(=O)Oc1ccc(C(=O)N(C(=O)c2ccc(OC(C)=O)cc2)c2cc(C)ccn2)cc1	-21	0	100	97
O=C(NCc1ccco1)NC1CCCN1S(=O)(=O)c1ccc(Cl)cc1 (configuration not stated)	-1	2	103	105
CCCCNC1=NCCCS1	-21	-6	105	111
Cc1ccc(N2CN=c3s/c(=C4\C(=O)N(C)c5ccccc54)c(=O)n3C2)cc1	5	-1	103	104
COC(=O)C(Cc1ccccc1)NS(=O)(=O)c1ccc(OC)cc1 (configuration not stated)	-9	-13	103	107
Nc1nonc1-n1nnc(C(=O)O)c1-c1ccccc1	10	-2	103	105
CCOC(=O)c1cccc(NC(=O)N2CCSc3ccccc32)c1	6	-16	100	102
CCN1C(=O)CN(c2ccccc2)C1=S	-129	2	102	99
CN(C)S(=O)(=O)c1ccc(C(=O)OCC(=O)Nc2ccccc2)cc1	2	6	100	95
O=S(=O)(NCc1ccccc1)c1ccccc1F	.	-8	100	102
N#Cc1sc2nc(-c3ccccc3)cc(C(F)(F)F)c2c1N	.	-9	103	126
CCCn1c(CSc2ncccn2)nc2cc(S(=O)(=O)N3CCOCC3)ccc21	-24	24	104	112
CCn1c(SCC(=O)OC)nnc1-c1ccc(O)cc1	-18	-7	105	100
Cc1nnc2sc(-c3ccc(NC(=S)NC(=O)c4cccs4)cc3)nn12	0	-6	100	102
O=C1CN(S(=O)(=O)c2ccc3c(c2)Cc2ccccc2-3)CC(=O)N1	-20	44	102	102
COc1ccc(CC(=O)OCC(=O)NC2CCCCC2)cc1	-11	-6	104	109
CC(C)C(=O)Nc1ccc(-c2nc3ccccc3c(=O)[nH]2)cc1	-21	-24	101	101
N#Cc1ccc(COC(=O)CN2C(=O)CSc3ccccc32)cc1	-8	-6	106	109
CC(C)(C)C1=CC(=O)C(N2CCN(Cc3ccccc3)CC2)=CC1=O	7	9	100	107

Shown field by field: 2 of the compounds above
COC(=O)C1=NNC(C(=O)OC(C)(C)C)C1c1ccccc1 (configuration not stated)
  MenB inh: -2
  MbtI inh: .
  PV pol inh: 98
  PV pol inh intensity: 102
O=C(CCN1C(=O)C2C3C=CC(C3)C2C1=O)NC1CCCc2ccccc21 (configuration not stated)
  MenB inh: 15
  MbtI inh: 12
  PV pol inh: 103
  PV pol inh intensity: 100

Compounds listed so far containing an aryl methoxy group (13):
SMILES	MenB inh	MbtI inh	PV pol inh	PV pol inh intensity
COc1cc(Cl)c(C)cc1NC(=O)NCc1noc2ccc(C)cc12	-5	-8	106	109
COc1ccc(-n2c(SC3CCOC3=O)nc3ccccc32)cc1 (configuration not stated)	-1	5	102	106
COc1ccc(Cl)cc1NC(=O)CN1C(=O)CC(c2ccccc2)S(=O)(=O)c2ccccc21 (configuration not stated)	-10	11	100	104
COc1ccc(CN2CCCC(C(N)=O)C2)cc1 (configuration not stated)	-19	-7	101	103
COc1ccc(C(=O)NC(=S)Nc2ccc(NC(=O)c3ccco3)cc2)cc1Cl	-8	-20	98	103
COc1cccc(NC(=O)Cn2c(=O)n(C(C)C)c(=O)c3oc4ccccc4c32)c1	-4	-21	104	104
COc1ccc(NC(=O)C2CCN(C(=O)c3cccc(OC)c3)CC2)cc1	-5	6	102	101
COc1ccc(CN(C)c2nn(C)c(=O)n(C)c2=O)cc1OC	4	3	100	102
COc1ccc(N2CCN(S(=O)(=O)/C=C/c3ccccc3)CC2)cc1	-6	-4	102	100
COc1ccc2[nH]c3c(c2c1)CCN=C3C	-6	-23	100	99
COc1ccc(N2CCN(CCCn3c(NN)nc4ccsc4c3=O)CC2)cc1	12	2	103	97
COC(=O)C(Cc1ccccc1)NS(=O)(=O)c1ccc(OC)cc1 (configuration not stated)	-9	-13	103	107
COc1ccc(CC(=O)OCC(=O)NC2CCCCC2)cc1	-11	-6	104	109
